TRPML1 ag – agonists of human TRPML1 channel; Q9GZU1; TRPML1-expressing cells, Ca2+ dye fluorescence, FDSS; host cell line not named in the record; reference of the full effect not given here; activation, % (test concentration not listed); actives 0.12% (n = 410,000); AID 624414; in the data active = activation above about 50%; inconclusive = about 30% to 50%; inactive = below about 30%; further: 0% is about no effect; the text of the record puts the active cut at 80%
Target sequence (Q9GZU1 whole entry, looked up): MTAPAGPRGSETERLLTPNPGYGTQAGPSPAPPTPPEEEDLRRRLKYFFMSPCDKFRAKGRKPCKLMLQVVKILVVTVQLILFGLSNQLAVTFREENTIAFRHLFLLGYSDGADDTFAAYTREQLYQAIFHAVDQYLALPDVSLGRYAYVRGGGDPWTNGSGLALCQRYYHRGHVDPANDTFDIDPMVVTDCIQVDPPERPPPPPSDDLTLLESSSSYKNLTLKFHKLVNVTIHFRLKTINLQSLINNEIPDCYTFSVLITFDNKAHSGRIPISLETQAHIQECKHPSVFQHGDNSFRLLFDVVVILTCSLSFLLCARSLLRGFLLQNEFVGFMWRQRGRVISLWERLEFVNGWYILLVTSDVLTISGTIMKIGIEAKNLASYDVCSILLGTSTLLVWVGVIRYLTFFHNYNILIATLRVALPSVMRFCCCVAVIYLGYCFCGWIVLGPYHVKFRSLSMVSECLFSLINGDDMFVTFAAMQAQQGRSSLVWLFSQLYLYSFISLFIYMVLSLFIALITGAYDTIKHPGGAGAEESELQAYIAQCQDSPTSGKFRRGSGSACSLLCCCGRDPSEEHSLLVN
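In this qHTS format, compounds were pin-transferred onto Ca8-dye-loaded TRPML1-DL cells induced with Tet overnight, and intracellular Ca2+ fluorescence was recorded kinetically for 110 s after a 10 s baseline. A subsequent 4uM final 54-4 (EC80) addition followed by a second 110 s read served as the antagonist phase.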
TRPML1 inh – human mucolipin-1 channel inhibition. TRPML1-inducible cells, Ca2+ dye fluorescence, FDSS; hits give low values; inhibition of EC80 agonist-evoked calcium signal. activity change, negative = inhibition, % (concentration not given with the values). actives 0.02% (n = 390,000). AID 624415; in the data active means activity change below about -50%; inconclusive means about -30% to -50%; inactive means above about -30%;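 further: stimulus is agonist 54-4 at its EC80 concentration; on the % scale 0 is the no-effect control and ±100 the full control effect; compound concentration not given in the record; the text of the record puts the active cut at -80%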
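Calcium fluorescence in TRPML1-DL cells induced overnight with Tet: a 110 s read after compound pin addition, then a 110 s antagonist read after challenge with 54-4 at 4 uM final (EC80).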
D2 PAM – positive allosteric modulators of human D2 dopamine receptor; DiscoveRx D2 beta-arrestin cells, luminescence, 90 min; 100% = 57 uM dopamine signal; actives 0.23% (n = 360,000); P14416; AID 624464; potentiation, % (test concentration not listed); active = potentiation of 50% or more; inconclusive = 30% to 50%; inactive = 30% or less;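 further: compound concentration not given in the record; tested on top of an EC20 dose of dopamine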
Target sequence (P14416 whole entry, looked up): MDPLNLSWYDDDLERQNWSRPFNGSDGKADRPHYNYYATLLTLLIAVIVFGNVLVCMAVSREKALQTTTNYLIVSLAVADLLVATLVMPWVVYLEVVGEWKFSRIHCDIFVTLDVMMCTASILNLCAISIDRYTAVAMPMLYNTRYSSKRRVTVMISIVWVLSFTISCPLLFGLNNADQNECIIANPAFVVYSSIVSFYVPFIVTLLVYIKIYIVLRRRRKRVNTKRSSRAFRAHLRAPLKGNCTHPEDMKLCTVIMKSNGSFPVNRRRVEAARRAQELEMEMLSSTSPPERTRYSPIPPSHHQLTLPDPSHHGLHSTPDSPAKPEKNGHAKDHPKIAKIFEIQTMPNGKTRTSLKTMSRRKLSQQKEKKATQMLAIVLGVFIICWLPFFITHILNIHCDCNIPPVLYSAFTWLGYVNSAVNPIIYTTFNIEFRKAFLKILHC
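D2 cells co-treated with compound plus 50 nM dopamine (EC20) for 90 min at 37 deg C to detect potentiation. Beta-arrestin recruitment was read as enzyme-fragment luminescence after 1 h at ambient temperature. Full response was set by 57 uM dopamine.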
PINK1 modulator – PINK1 expression modulation; PINK1 immunofluorescence, high-content cytometry, 24 h; Potency, µM (titrated, usually from 76.6 µM), for inactives: top-dose activation (PINK1 increase), usual class: activators; actives 0.2% (n = 410,000); active = well fitted activation curve with a large enough effect; inconclusive = small, poorly fitted or top-dose-only effect; inactive = flat fitted curve, though single readings scatter; cell line not stated here;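 further: potency means the concentration at half of the fitted maximal effect; % of control where 0% means no effect; nearly all actives have a fitted effect of over 65% in size; a mitochondrial uncoupler was the plate control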
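Cells are seeded, rested 12 hours, then given compound at five concentrations or DMSO for 24 hours. After fixation, blocking and antibody staining, PINK1 amount and mitochondrial localization are scored; CCCP serves as control.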
D2 agonist – human D2 receptor agonism in beta-arrestin assay; P14416; DiscoveRx PathHunter D2 beta-arrestin, luminescence, 90 min; 100% = 57 uM dopamine signal; activation, % (test concentration not listed); actives 0.084% (n = 360,000); AID 624465; in the data active = activation above about 40%; inconclusive = about 15% to 40%; inactive = below about 15%; further: compound concentration not given in the record; the text of the record calls up to 30% inactive
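DiscoveRx PathHunter D2 beta-arrestin cells (2,100/well) attached overnight, then compound-stimulated 90 min at 37 C in HBSS/10 mM HEPES/0.1% Tween-20 buffer; beta-galactosidase complementation read by luminescence after 1 h at ambient temperature. Dopamine 57 uM final (EC100) as control.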
Six1-Eya2 inh – blocks human Six1 binding to Eya2; activity change, % (no concentration beside the values); actives 0.56% (n = 360,000); Q15475+O00167; AlphaScreen GST-Six1/His-Eya2 binding, biochemical; hits give low values; control for the full effect not named in the record; in the data active = activity change below about -65%; inconclusive = about -30% to -65%; inactive = above about -30%; further: on the % scale 0 is the no-effect control and ±100 the full control effect; compound concentration not given in the record
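GST-Six1 + His-Eya2 (5X stock: 250/500 nM); Tris pH 8.0, 300 mM NaCl, 0.05% BSA, 0.02% Tween 20; GSH donor/Ni acceptor beads; 1 h 37 °C dark; AlphaScreen readout.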
Starred values were filed as active, the others as inactive; ? = inconclusive; . = no result given; [ ] = remark or other dose.

SMILES | TRPML1 ag | TRPML1 inh | D2 PAM | PINK1 modulator | D2 agonist | Six1-Eya2 inh
CCOC(=O)c1nn(-c2ccccc2F)c2nc(Nc3ccccc3)cc(=O)n12 | -0.1 | 1.6 | -30.5 | 25.7% | -2.4 | -16.6
c1ccc(-c2nc3cccnc3nc2-c2ccccc2)cc1 | -0.8 | -7.8 | -0.4 | -0.5% | -8.1 | 0.0
CN(CCc1ccccc1)C(=O)c1ccc(NC(=O)Cc2ccc(NC(=O)C3CCCN(C(=O)c4ccccc4)C3)cc2)cc1 (configuration not stated) | 1.4 | -14.9 | 2.7 | 3.3% | 2.0 | 0.0
O=C(O)CSc1cc(C(F)(F)F)nc(-c2ccccn2)n1 | 1.0 | -3.3 | 5.2 | 4.6% | -0.1 | 9.7
CCOC(=O)c1sc2nc(N3CCOCC3)c3c(c2c1N)CCN(Cc1ccccc1)C3 | 0.2 | 11.0 | -20.0 | 2.4% | -3.2 | -14.2
Cc1ccc2c(c1)nnn2C1CCN(CC(=O)Nc2ccc3c(c2)OCCO3)CC1 | 2.6 | 37.0 | -26.2 | -1.5% | -0.9 | -2.7
CC1CN(S(=O)(=O)c2cccc(C(=O)NCc3ccc4c(c3)OCO4)c2)CC(C)O1 (configuration not stated) | -0.1 | 16.8 | 7.0 | -1.2% | -3.1 | -0.3
Cc1nn(C)c(C)c1CN(C)S(=O)(=O)c1ccc2ccccc2c1 | 0.1 | 4.6 | 9.2 | 1.0% | 1.0 | 4.9
CCc1ccc2c(c1)/C(=C/C(=O)c1cccs1)C(=O)N2 | 2.5 | -1.2 | -10.1 | 3.2%[38.3 µM] | -5.0 | -1.6
COC(=O)CCSCc1cn2cc(Cl)ccc2n1 | -0.4 | 32.6 | -16.2 | 1.5% | -3.3 | 0.5
CC(=O)Nc1ccc(NC(=O)COC(=O)C2(c3ccc(Cl)cc3)CCCC2)cc1 | 2.3 | 7.1 | 4.6 | 1.6% | 2.0 | 0.7
O=C(Cc1ccccc1)NCC(=O)N1CCC2(CC1)NCCc1[nH]cnc12 | -0.5 | 31.0 | -6.9 | 1.2% | -2.5 | 2.3
O=C(Nc1cc(S(=O)(=O)N2CCOCC2)ccc1N1CCCC1)c1ccc2c(c1)S(=O)(=O)c1ccccc1C2=O | 1.4 | -7.5 | 14.8 | 0.2% | -1.2 | -8.7
Cc1ccsc1C(=O)Nc1ccc(O)c(-c2nc3ccccc3s2)c1 | 0.1 | 4.4 | -8.9 | -1.5% | -5.4 | 1.9
CC(C)(C)C1CCc2c(sc3nc(SCC(=O)O)nc(N)c23)C1 (configuration not stated) | 0.1 | -6.2 | -3.6 | 0.2% | 0.7 | -1.1
O=C(CSc1nc2ccccc2s1)Nn1cnnc1 | 0.1 | -25.2 | -6.4 | -1.1% | 0.0 | 10.8
CCN(C(=O)COC(=O)Cn1c(=O)oc2ccccc21)c1c(N)n(Cc2ccccc2)c(=O)[nH]c1=O | -0.3 | 3.4 | -3.9 | 1.8% | -0.9 | 4.4
CCn1nnc2cc(C(=O)Nc3cc(OC)cc(OC)c3)ccc21 | 1.4 | -5.5 | -3.1 | -3.3% | 2.8 | -23.8
CCN(CC)C(=O)C1CCCN(Cc2sccc2C)C1 (configuration not stated) | -0.7 | -10.4 | -6.3 | 2.8%[38.3 µM] | -1.0 | 3.8
CN1CCN(S(=O)(=O)c2ccc(Br)c3nsnc23)CC1 | -1.0 | 6.1 | 0.3 | -4.3% | 3.2 | 5.3
Nc1ccc2oc(Cc3ccc(Cl)cc3)nc2c1 | -0.3 | -7.9 | . | 2.5% | . | .
COc1ccc(C)cc1NC(=O)NC1CC(=O)N(c2ccc3c(c2)OCCO3)C1 (configuration not stated) | -0.6 | -2.3 | -35.3 | -0.8% | -2.8 | -10.3
CCCCN1C2CCCC1CC(NC(=O)c1cccc(Cl)c1)C2 (configuration not stated) | 0.0 | -17.8 | -29.9 | 0.1% | -3.4 | -3.8
Cc1cc(=O)n(CC(=O)NC2CC2)c2c1c(C)nn2-c1ccccc1 | -0.2 | -1.5 | -9.1 | 1.9% | -2.7 | -0.6
Cc1nc2c(C)cccn2c(=O)c1NC(=O)c1ccc(Br)o1 | -0.8 | 1.6 | -18.4 | 0.4% | -5.7 | 25.1
CCN(CC)c1ccc2c(C)c(Cl)c(=O)oc2c1 | 2.9 | -5.3 | -3.1 | -0.2% | 7.1 | 79.4
Cc1cc(C)cc(NC(=O)C2C3C=CC4(O3)C2C(=O)N(CCCN2CCCC2)C4C(=O)NC2CCCC(C)C2C)c1 (configuration not stated) | -0.2 | 9.1 | -13.9 | -0.4% | -4.5 | -3.0
CCC[n+]1c(C)sc2c(OC)ccc(OC)c21 | -0.3 | 24.2 | -14.9 | -1.1% | -4.7 | 3.3
Cc1ccc(S(=O)(=O)N2CCN(C(=S)NCC3CCCO3)CC2)cc1 (configuration not stated) | -0.5 | 0.5 | -19.2 | 2.4% | -4.6 | 2.4
OC(COC(c1ccc(F)cc1)c1ccc(F)cc1)CN1CCc2ccccc2C1 (configuration not stated) | 0.4 | 23.8 | -16.4 | -1.7% | 1.1 | -1.6
Cc1c(NC(=O)COC(=O)/C=C/c2cccc(Br)c2)c(=O)n(-c2ccccc2)n1C | -0.2 | 13.9 | -2.9 | -1.5% | 1.4 | -0.5
Cc1cccc(-c2cccc3nccn23)c1 | -1.0 | . | -13.2 | 0.2% | -6.4 | 7.2
Nc1cc(C(F)(F)F)cc2c1SCC(=O)N2 | 0.5 | -10.9 | -26.5 | 0.9% | -1.6 | 23.2
CC(=O)c1cccc(NC(=O)NC2CCCCCCC2)c1 | 6.0 | 11.5 | -22.4 | -0.5% | -3.0 | 8.1
Cc1cc(F)ccc1NCc1ccc([N+](=O)[O-])cc1 | 3.6 | 48.2 | -2.4 | 2.4% | -2.5 | -15.4
CCc1nnc(NC(=O)NC(C)(C)C)s1 | -1.3 | -6.2 | -18.1 | -1.0% | -4.9 | -1.4
CN1CCN(c2ccc(S(=O)(=O)N3CCCCC3)cc2NC(=O)c2ccc(C#N)cc2)CC1 | -0.5 | 2.1 | 23.2 | 0.1% | -0.4 | 5.0
C=C(C)CNC(=S)N/N=C/c1ccco1 | -0.5 | 0.4 | -4.2 | 1.3% | -0.5 | 2.9
CC(C)C1Nc2c(C(=O)O)cccc2C(Nc2ccccc2C(=O)O)C1(C)C (configuration not stated) | -0.4 | 9.3 | -4.6 | -0.5% | 5.0 | -16.4
COc1ccc(NC(=O)CC2C(=O)N(c3ccc(OC)cc3)C(=O)N2CCN2CCN(C)CC2)cc1 (configuration not stated) | -0.3 | 9.6 | -14.8 | 5.0%[38.3 µM] | -3.9 | 1.6

Looked up by structure from above:
SMILES | TRPML1 ag | TRPML1 inh | D2 PAM | PINK1 modulator | D2 agonist | Six1-Eya2 inh
CN1CCN(S(=O)(=O)c2ccc(Br)c3nsnc23)CC1 | -1.0 | 6.1 | 0.3 | -4.3% | 3.2 | 5.3
OC(COC(c1ccc(F)cc1)c1ccc(F)cc1)CN1CCc2ccccc2C1 (configuration not stated) | 0.4 | 23.8 | -16.4 | -1.7% | 1.1 | -1.6
Nc1ccc2oc(Cc3ccc(Cl)cc3)nc2c1 | -0.3 | -7.9 | . | 2.5% | . | .
Cc1ccc(S(=O)(=O)N2CCN(C(=S)NCC3CCCO3)CC2)cc1 (configuration not stated) | -0.5 | 0.5 | -19.2 | 2.4% | -4.6 | 2.4
Cc1cccc(-c2cccc3nccn23)c1 | -1.0 | . | -13.2 | 0.2% | -6.4 | 7.2

Next section:
SMILES | TRPML1 ag | TRPML1 inh | D2 PAM | PINK1 modulator | D2 agonist | Six1-Eya2 inh
O=C(Nc1ccccc1C(F)(F)F)c1cc(-c2cccc(O)c2)on1 | 0.8 | 4.3 | -7.1 | -1.9%[38.3 µM] | -0.2 | 3.5
COC(=O)c1[nH]c2cc(C)ccc2c1NC(=O)CN1CCCc2ccccc21 | 0.4 | 8.9 | -20.4 | 17.1% | -3.3 | -12.9
CC(NC(=O)c1ccc(S(=O)(=O)NCc2ccco2)cc1)c1ccc(F)cc1 (configuration not stated) | 0.0 | 66.9 | -2.3 | -0.1% | 9.1 | -5.7
CC(=O)c1ccc(OC2(C)CCN(Cc3cc4ccccc4[nH]3)C2)cc1 (configuration not stated) | -0.5 | . | -22.2 | 1.0% | -4.7 | -7.9
CCOC(=O)C1CCN(C(=O)COc2ccc(Cl)cc2Cl)CC1 | 1.3 | -9.3 | -4.2 | -1.7% | -2.6 | -1.2
CCOC(=O)Cn1nc(C)c(NC(=O)CCc2ccccc2)c1C | 4.0 | -1.7 | -3.9 | -1.6% | 2.2 | 4.9
CCCS(=O)(=O)Nc1c(C(=O)O)[nH]c2ccccc12 | -0.7 | -0.3 | 6.9 | -0.6% | -0.6 | 1.4
Cc1cccc(CS(=O)(=O)c2ncc(Cl)c(C(=O)NCc3ccc4c(c3)OCO4)n2)c1 | 0.2 | 15.2 | -32.7 | -1.8% | -6.7 | -10.8
O=C(O)c1cccc(S(=O)(=O)N2Cc3ccccc3C2)c1 | -0.8 | -10.2 | -22.4 | 0.0% | -5.1 | -1.7
O=C(c1cccc(-n2cnnn2)c1)N1CCOCC1 | 2.9 | 7.4 | -11.9 | ? | -0.2 | 4.0
S=C(Nc1ccc(Br)cc1)N1CCN(C2CCCCC2)CC1 | 0.6 | -6.2 | -8.9 | 5.2%[38.3 µM] | -1.3 | -0.8
Cc1[nH]n(-c2ccccc2)c(=O)c1/C=C1\C=NN=C1c1ccccc1 | 0.4 | 24.7 | -6.8 | 2.6% | -0.1 | 5.8
N#Cc1ccccc1CN1C(=O)S/C(=C/c2cccn2-c2cccc(C(=O)O)c2)C1=O | 2.0 | 42.4 | -2.6 | 0.4% | 3.8 | -14.9
O=C(N/C=C\n1cnc2cc(C(F)(F)F)ccc21)c1ccc([N+](=O)[O-])cc1 | 0.7 | 8.3 | 4.2 | 0.1% | 2.1 | 3.1
COc1ccc(C(=O)N=c2sc3cc(Cl)ccc3n2C)cc1 | 0.3 | 16.1 | . | 0.2% | . | .
O=C(CN1C(=O)NC2(CCCC2)C1=O)OCCOc1ccc(Cl)cc1Cl | -0.5 | -6.0 | 2.1 | 1.6% | -4.3 | 0.3
CC(OC(=O)c1ccc(Cl)c(S(=O)(=O)N2CCc3ccccc32)c1)C(=O)Nc1ncc(Cl)cc1Cl (configuration not stated) | 2.0 | 1.9 | -2.2 | -0.4% | 1.7 | 13.8
COCC(=O)NC1CCN(S(=O)(=O)c2ccc(C(=O)O)cc2)CC1 | -1.0 | -4.2 | 2.1 | -2.8% | -2.4 | 3.5
CCOc1ccc2nc(SC3CC(=O)N(c4ccc(OC)cc4)C3=O)sc2c1 (configuration not stated) | 2.4 | 2.9 | -19.2 | -0.4% | 2.1 | -1.1
COc1c(C)cc(C(O)c2ncc(-c3ccccc3C(F)(F)F)[nH]2)cc1C (configuration not stated) | -0.9 | . | -7.4 | -0.7% | -5.2 | 9.7
